Vaccinia pol inh – inhibitors of vaccinia virus processive DNA synthesis (E9 polymerase); normalized absorbance, % (no concentration beside the values); in vitro processive DNA synthesis, absorbance read-out; active compounds read low; some inactives read as strong as hits; actives 0.94% (n = 46,000);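 active = replicate mean up to 90% and picked by the depositor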;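 note: 100% = median of the test wells of a plate; 100 nL library stock went into each well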
An asterisk follows results filed as active; & = joins results of further samples. A portion of the library; count on the stated rates, not on these rows.

SMILES	Vaccinia pol inh
N#C/C(=C\Nc1ccc(C(N)=O)cc1)c1nc(-c2cccc(Br)c2)cs1	95
O=C(c1ccc(CS(=O)c2ccc(Cl)cc2)o1)N1CCCC1 (stereo unspecified)	92
Cc1[nH]c(=O)[nH]c(=O)c1/C=C/C(=O)O	100
CCCNC(=O)c1ccc(CS(=O)(=O)c2ccccc2C)o1	85
CN1C2CCC1CC(NC(=O)c1cccc(C(F)(F)F)c1)C2 (stereo unspecified)	108
COCn1ccnc1P(=O)(O)c1ccccc1	101
CC1CCCCN1c1nnc(NC(=O)Nc2ccccc2C(F)(F)F)s1 (stereo unspecified)	100
CC(=O)Oc1cccc2ccc(=O)[nH]c12	91
CCOc1ccc(C2Nn3c(nnc3-c3ccccc3)SC2C(=O)N2C(C)CCCC2C)cc1 (stereo unspecified)	92
O=C(NCCc1ccsc1)c1cnn2ccccc12	95
CC1=C(c2ccc(C)cc2)S(=O)(=O)NC1=NC1CCCC(C)C1C (stereo unspecified)	101
Fc1ccc(CN2CCCN(Cc3ccc(F)cc3)C2c2ccco2)cc1	121
CCCCN1C(=O)/C(=C2\SC(=Nc3ccc(Cl)cc3)N(C)C2=O)c2ccccc21	100
O=C(Cn1cncn1)NCCc1ccccc1	100
NC(=O)c1ccsc1NC(=O)C1COc2ccccc2O1 (stereo unspecified)	108
C[C@]12CCC3c4ccc(O)cc4CCC3C1C[C@@H](O)[C@@H]2O (stereo partly specified)	100
CCN(CC)C(=O)COc1ccc2ccccc2c1Br	99
COc1ccc(NC(=O)Cn2c(-c3ccccc3)cn(-c3ccc(C)cc3)c2=O)cc1	100
Cc1cc(Cl)cc(Cl)c1CN(C)C(=O)c1cnc(Oc2ccccc2)cc1C(F)(F)F	94
O=C(CCN1CCCCC1)Nc1ccc(F)c(Cl)c1	104
O=C(Nc1ccc2c(c1)OCCO2)C1Cc2ccccc2N1C(=O)OCc1ccccc1 (stereo unspecified)	95
O=C(COC(=O)C1CCC1)Nc1ccc(F)cc1	100
CCCC(=O)c1cn(CC(=O)OC)c2ccccc12	108
c1ccc(-c2cc(N3CCCC3)n3cnnc3n2)cc1	96
CN1C2CCC1CC(OC(c1ccccc1)c1ccccc1)C2 (stereo unspecified)	100
O=C(CSCc1ccccc1)Nc1ccccc1C(=O)NCc1ccccc1	101
CCN(c1ccc(F)cc1)S(=O)(=O)c1cccc2nsnc12	88
CCOC(=O)c1cc(C#N)c(=O)[nH]c1-c1ccccc1	115
O=C(NC1CCCC1)c1cc2nc(-c3ccccc3)cc(-c3ccccc3)n2n1	100
NNC(=O)c1ncoc1-c1ccc(Cl)cc1	100
Cc1nc2ccc(Cl)cc2n1CO	100
COC(=O)c1cc(C2CC2)[nH]n1	102
CN1C2CCC1CC(NC(=O)CSCc1ccc(Cl)cc1Cl)C2 (stereo unspecified)	95
NCC12CC3CC(C1)CC(CN)(C3)C2	100
CCCOc1ccc(C(=O)N2CCCC2C(=O)O)cc1 (stereo unspecified)	102
Cc1ccc(SCC2CNC(c3ccc(N(C)C)cc3)O2)cc1 (stereo unspecified)	98
CCCCOc1cc(CC2CNC(=O)N2)ccc1OC (stereo unspecified)	97
Cc1ccc(NCC(=O)O)cc1	100
COCC(C)NC(=O)c1cccc(OC)c1 (stereo unspecified)	101
CC(C)(C)c1ccc(NC(=O)COC(=O)Cc2ccsc2)cc1	105
CC(C)S(=O)(=O)c1csc(NC(=O)N2CCCCC2)c1Cl	103
Cc1ccc2nc(Cl)c3cc(C(=O)NC(C)CCc4ccco4)sc3c2c1 (stereo unspecified)	102
COc1cccc(/C=N/c2sc3c(c2C#N)CCCC3)c1O	102
C[N+]1(CCn2ccc3ccccc32)CCCCC1	100
O=C(Nc1ccncc1)c1c(Cl)nc2sccn12	102
Nc1cc(-c2ccccc2)nn1Cc1ccc(Cl)cc1	103
S=C(NC1CCCCC1)C12CCC3CC(CC(C3)C1)C2	101
COC(=O)c1cc2occc2n1C	105
Fc1cc2c(c(CSc3nc4ccccc4s3)c1)OCOC2	99
N#CCC(=O)N1CCn2c1nc1ccccc12	88
CC(NC(=O)C12CC3CC(CC(C3)C1)C2)C(=O)N1CCOCC1 (stereo unspecified)	101
S=C(c1ccccc1)N1CCSCC1	96
COC(=O)c1c(NC(=O)c2ccc(Cl)s2)sc2c1CCN(C(C)=O)C2	106
CCCC1CCC(c2ccc(C(N)=O)cc2)CC1 (stereo unspecified)	99
CSC(=Nc1cc(C(F)(F)F)cc(C(F)(F)F)c1)N1CCOCC1	89
CC1CCN(c2ccc(NC(=O)CCC(=O)O)cc2)CC1	110
CC1CCN(c2nnc(N)s2)CC1	100
COc1ccc(-c2cc(=NC(CC(C)C)C(=O)O)c3cc(C)ccc3o2)cc1 (stereo unspecified)	98
CCOC(=O)C1=NN(c2ccccc2)C(=C2C(=O)c3ccccc3C2=O)S1	93
COc1ccc(CNC(=O)CC2Oc3ccccc3NC2=O)cc1 (stereo unspecified)	70

5 entries from above, in CSV form.
SMILES,Vaccinia pol inh
CC1CCCCN1c1nnc(NC(=O)Nc2ccccc2C(F)(F)F)s1 (stereo unspecified),100
O=C(NCCc1ccsc1)c1cnn2ccccc12,95
c1ccc(-c2cc(N3CCCC3)n3cnnc3n2)cc1,96
COC(=O)c1c(NC(=O)c2ccc(Cl)s2)sc2c1CCN(C(C)=O)C2,106
N#C/C(=C\Nc1ccc(C(N)=O)cc1)c1nc(-c2cccc(Br)c2)cs1,95

The list goes on:
SMILES	Vaccinia pol inh
COc1ccc(NC(=O)c2ccc3c(=O)n(CCc4ccccc4)c(=S)[nH]c3c2)cc1	96
CCOc1ccc2c(c1)sc(=NC(=O)c1ccc(S(=O)(=O)N3CCCCC3C)cc1)n2CC (stereo unspecified)	99
CC(=O)N1C(c2ccccc2)CC(=O)C(c2ccccc2)C1c1ccccc1 (stereo unspecified)	100
NC(=O)c1c(-c2ccccc2)oc2ccc(O)cc12	100
CCN(Cc1ccccc1)S(=O)(=O)c1ccc(C(=O)Nc2nnc(COC)o2)cc1	86
CN(C(=O)COC(=O)c1ccc(Br)o1)c1ccccc1	101
Clc1ccc(-c2nc3cc(CN4CCCCC4)ccc3o2)cc1	102
COc1ccc(OC)c(N/C=C(\C#N)c2nc(-c3cc4ccccc4oc3=O)cs2)c1	100
COC(Cn1c(=S)[nH]c2ccccc2c1=O)OC	94
O=C(NC1CCCCC1)/C(=C\c1cccs1)NC(=O)c1ccccc1	100
COc1ccc(C2C(C(=O)NCc3ccccn3)c3ccccc3C(=O)N2C)cc1 (stereo unspecified)	97
COc1ccc(-n2ncc3c(=O)[nH]cnc32)cc1	130
Cc1cc(C)c(-n2c(SCCS(=O)(=O)c3ccc(F)cc3)n[nH]c2=O)c(C)c1	98
CC(N)CCCC(C)(C)O (stereo unspecified)	100
CCOC(Cn1c(-c2ccc(OC)cc2)nc2ccccc21)OCC	96
COc1ccccc1-c1cc(=O)n(CC(=O)O)c2c1CCCC2	96
CCC(C)c1ccccc1NC(=O)CNc1ccc(F)cc1 (stereo unspecified)	105
Cc1c(C#N)c(N)nc(SCC(N)=O)c1C#N	100
Cc1ccc(-c2cc(C(=O)N(C)Cc3c(C)nn(C)c3C)c3cc(Br)ccc3n2)cc1	100
CC(C)(C)c1nc2sc3c(c2c(=O)o1)CCCC3	96
COc1ccccc1NC(=O)COC(=O)C1(c2ccc(F)cc2)CCCC1	113
O=C(O)c1[nH]c2ccccc2c1Br	80
CCOC(=O)CSc1ncnc2c1oc1ccccc12	92
Cc1ccc(C(=O)OCC(=O)N2CC(C)OC(C)C2)cc1 (stereo unspecified)	101
Cc1ccc(-c2cc(C(F)(F)F)nn2-c2ccc(S(N)(=O)=O)cc2)cc1	100
Cn1c(COc2ccccc2)nc2ccccc21	101
CC(C)(C)C(O)Cn1c(=N)n(CCN2CCCCC2)c2ccccc21 (stereo unspecified)	100
CN(C(=O)CSc1nc2ncccc2[nH]1)c1ccccc1	103
CN1CCN(C(=O)COc2ccccc2O)CC1	104
COC(=O)c1cc2sc(Cl)cc2[nH]1	96
CC(NC(=O)c1cc2ccccc2oc1=O)c1ccccc1 (stereo unspecified)	90
CN1C(=O)c2ccc(NC(=O)c3cccc4ccccc34)cc2C1=O	100
CC(C)c1ccc(S(=O)(=O)c2cc3ccccc3oc2=O)cc1	90
COc1cccc(-n2cc(C(=O)N(Cc3ccccc3)C(C)C)c3ccccc3c2=O)c1	106
N#CC1=C(SCC(N)=O)NC(O)(C(F)(F)F)C(C(=O)c2cccs2)C1c1ccccc1Cl (stereo unspecified)	101
Brc1cccc(-c2nnc3sc(CN4CCc5ccccc5C4)cn23)c1	102
N#C/C(N=Cc1ccc(Cl)cc1)=C(\C#N)NC(=O)Nc1ccc(OC(F)(F)F)cc1	102
COc1ccc2[nH]c(C(=O)N(C)c3ccc(F)cc3F)cc2c1	101
CC1(C)CC(=O)C=C(Sc2nc3ccccc3o2)C1	88
Cc1ccc2cccc(OC(=O)c3ccccc3F)c2n1	100
CC(C)(C)c1cc(C(F)(F)F)c(C#N)c(=O)[nH]1	100
Cc1ccc(N2CCN(c3cnn(-c4nc5ccccc5s4)c(=O)c3N(C)C)CC2C)cc1 (stereo unspecified)	104
O=C(Cn1nnc2ccccc21)Nc1ccc2ccccc2c1	102
Cc1ccc(N2C(=O)C(c3ccccc3)C(N3CCSCC3)C2=O)cc1 (stereo unspecified)	96
COC(=O)c1cccc(NC(=O)COc2ccccc2)c1	100

14 records picked at random from those above:
SMILES	Vaccinia pol inh
Cc1ccc(N2CCN(c3cnn(-c4nc5ccccc5s4)c(=O)c3N(C)C)CC2C)cc1 (stereo unspecified)	104
N#CC1=C(SCC(N)=O)NC(O)(C(F)(F)F)C(C(=O)c2cccs2)C1c1ccccc1Cl (stereo unspecified)	101
CN1C(=O)c2ccc(NC(=O)c3cccc4ccccc34)cc2C1=O	100
Brc1cccc(-c2nnc3sc(CN4CCc5ccccc5C4)cn23)c1	102
COC(=O)c1cccc(NC(=O)COc2ccccc2)c1	100
COc1ccc2[nH]c(C(=O)N(C)c3ccc(F)cc3F)cc2c1	101
CC(NC(=O)c1cc2ccccc2oc1=O)c1ccccc1 (stereo unspecified)	90
COc1cccc(-n2cc(C(=O)N(Cc3ccccc3)C(C)C)c3ccccc3c2=O)c1	106
Cc1ccc2cccc(OC(=O)c3ccccc3F)c2n1	100
CC(C)c1ccc(S(=O)(=O)c2cc3ccccc3oc2=O)cc1	90
N#C/C(N=Cc1ccc(Cl)cc1)=C(\C#N)NC(=O)Nc1ccc(OC(F)(F)F)cc1	102
O=C(Cn1nnc2ccccc21)Nc1ccc2ccccc2c1	102
Cc1ccc(N2C(=O)C(c3ccccc3)C(N3CCSCC3)C2=O)cc1 (stereo unspecified)	96
CC1(C)CC(=O)C=C(Sc2nc3ccccc3o2)C1	88

Later entries
SMILES	Vaccinia pol inh
O=C(Nc1cccnc1)c1ccc(-c2cc(Cl)ccc2Cl)o1	100
O=C(O)CC12CSc3[nH]c(=O)sc3C1c1ccccc1OC2=O (stereo unspecified)	85
CC(C)C(C(=O)NN1C(=O)/C(=C/c2ccccn2)N=C1c1ccccc1)c1ccc(Cl)cc1 (stereo unspecified)	100
O=C(O)c1c[nH]c2ccc(S(=O)(=O)N3CCCC3)cc2c1=O	109
O=C(O)/C=C\C(=O)c1ccc(O)cc1	88
COCC(C)NC(=O)c1ccco1 (stereo unspecified)	100
O=C(NC1CCCC1)c1c(O)c2cccc3c2n(c1=O)CC3	103
CC1(C)CC(=O)C=C(NCC2CCCO2)C1 (stereo unspecified)	102
CCn1c2ccccc2c2cc(NC(=O)CCC3CCCCC3)ccc21	100
C(=N\c1cc(-c2ccccc2)nn1-c1ccccc1)/c1ccccc1	100
CC1(C)CN(c2cccc(-c3ccnc4ncnn34)c2)C1=O	109
CCC(C)NC(=O)CSc1ccc(Cl)cc1 (stereo unspecified)	97
CC1CC1C(=O)OCC(=O)Nc1ccccc1C(F)(F)F (stereo unspecified)	102
Cc1sc(-n2cccc2)c(C#N)c1C	101
C/C(=C\C(=Nc1ccccc1O)c1ccccn1)c1ccccn1	104
COC(=O)C1=C(C)N(c2ccc(C)cc2)/C(=C/c2ccc(OC)cc2)C1=O	100
c1ccc(-c2cc(NCC3CC3)n3cnnc3n2)cc1	98
CN(CCc1ccccn1)C(=O)CC1(CC(=O)O)CCCC1	108
CCOc1cc(/C=C2\C(=O)Nc3ccc(Br)cc32)ccc1OCC(=O)O	100
O=C(COc1ccccc1)Nc1sc2c(c1C(=O)NCC1CCCO1)CCCC2 (stereo unspecified)	91
O=c1c2ccccc2[se]n1-c1ccccc1	99&100
CC1(C)Cc2ccccc2C(CSc2nnc3c(n2)[nH]c2ccccc23)=N1	100
COc1ccc2oc(=O)cc(O)c2c1	105
COc1ccc(C(CC(=O)Nc2cc(OC)cc(OC)c2)n2cccc2)cc1 (stereo unspecified)	103
O=S(=O)(c1cccc(C(F)(F)F)c1)N1CCOCC1	93
CC[C@@H](CO)NC(=O)[C@@H]1C=C2c3cccc4[nH]cc(c34)C[C@H]2N(C)C1	99
Cc1nc(SCC(=O)c2ccc(Cl)cc2)c(C#N)c(C)c1C	100
O=C1/C(=C/C2CCCO2)CC/C1=C\C1CCCO1 (stereo unspecified)	14*
O=C(CCc1ccccc1)c1ccc2c(c1)OCCCO2	86
COc1cccc(CNCCc2c[nH]c3ccccc23)c1	100
O=C1C2C3C=CC(C3)C2C(=O)N1c1cccnc1 (stereo unspecified)	100
CCC(C)NC(=O)C1c2ccccc2C(=O)N(CCOC)C1c1cccs1 (stereo unspecified)	97
COc1ccc(NC(=O)c2ccc(Cn3cc(Cl)cn3)cc2)cc1	96
O=C(COc1cccc2ccccc12)Nc1ccc(CN2CCOCC2)cc1	90
COC(=O)C1CCN(S(=O)(=O)c2ccccc2)CC1	100
CCCN(CCC)C(=O)CSc1nc2ccsc2c(=O)n1Cc1ccccc1Cl	98
CC(C)(C)C(=O)Nc1nnc(/N=C/c2ccc(Br)s2)s1	99
Cc1ccc(N(C(=O)C2CCCO2)C2C=CS(=O)(=O)C2)cc1Cl (stereo unspecified)	102
CCCN1CC23C=CC(O2)C(C(=O)O)C3C1=O (stereo unspecified)	110
Cc1ccc(C2CC(=O)CC(c3ccccc3)S2)cc1 (stereo unspecified)	98
CCCCN1C(=O)S/C(=C\c2cc(C)n(C)c2C)C1=O	100
O=C(CCn1c(=O)sc2ccccc21)NCc1cccs1	102

Bioassay records as filed in PubChem.
